# NPR1 antag – antagonists of human natriuretic peptide receptor Npr1; P16066; HEK293 hNpr1 GloSensor cGMP, ANP-stimulated luminescence; Potency, µM (top dose mostly 46.3 µM), for inactives: at the highest dose activity change, negative = inhibition, most hits filed as inhibitors; actives 1.6% (n = 76,000); active = well fitted inhibition curve with a large enough effect; inconclusive = small, poorly fitted or top-dose-only effect; inactive = no such curve, though single readings can be large or run the other way;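 note: nearly all actives have a fitted effect of over 60% in size; nearly all hits also lower the signal before the agonist is added; a reference antagonist and vehicle were the controls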
# Target sequence (P16066 whole entry, looked up): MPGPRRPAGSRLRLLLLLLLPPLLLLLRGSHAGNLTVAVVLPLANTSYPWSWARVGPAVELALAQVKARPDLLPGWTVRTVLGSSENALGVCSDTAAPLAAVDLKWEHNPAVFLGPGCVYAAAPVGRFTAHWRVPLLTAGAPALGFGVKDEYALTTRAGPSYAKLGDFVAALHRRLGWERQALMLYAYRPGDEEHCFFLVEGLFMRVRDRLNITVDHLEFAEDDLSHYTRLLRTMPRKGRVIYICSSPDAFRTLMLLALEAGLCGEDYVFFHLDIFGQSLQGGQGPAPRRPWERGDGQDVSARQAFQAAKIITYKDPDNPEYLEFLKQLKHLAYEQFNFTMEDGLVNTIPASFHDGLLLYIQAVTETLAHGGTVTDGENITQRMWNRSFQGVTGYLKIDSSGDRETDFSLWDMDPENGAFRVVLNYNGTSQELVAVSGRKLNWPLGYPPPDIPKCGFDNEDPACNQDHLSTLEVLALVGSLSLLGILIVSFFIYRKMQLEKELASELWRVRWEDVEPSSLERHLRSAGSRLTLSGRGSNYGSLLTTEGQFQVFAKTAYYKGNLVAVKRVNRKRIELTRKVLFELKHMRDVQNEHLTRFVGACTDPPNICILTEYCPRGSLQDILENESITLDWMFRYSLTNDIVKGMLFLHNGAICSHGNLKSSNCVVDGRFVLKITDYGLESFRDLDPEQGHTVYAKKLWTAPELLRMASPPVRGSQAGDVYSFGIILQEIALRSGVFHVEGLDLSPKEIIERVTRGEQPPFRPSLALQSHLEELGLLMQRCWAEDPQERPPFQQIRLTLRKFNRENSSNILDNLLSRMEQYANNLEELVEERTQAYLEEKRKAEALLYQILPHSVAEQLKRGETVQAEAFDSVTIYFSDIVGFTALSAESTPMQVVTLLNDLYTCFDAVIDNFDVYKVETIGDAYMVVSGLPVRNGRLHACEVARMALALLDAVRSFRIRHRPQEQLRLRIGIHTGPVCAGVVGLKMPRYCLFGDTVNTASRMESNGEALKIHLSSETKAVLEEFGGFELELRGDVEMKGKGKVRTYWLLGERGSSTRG
#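 Compound pre-incubated 30 min at room temperature on GloSensor-loaded HEK293 cells stably carrying hNpr1 and the pGS-40F cGMP biosensor. Stimulation uses hNppA at 0.1 nM final; luminescence is taken at baseline and 20 min post-agonist.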
# Starred values were filed as active, the others as inactive; u = inconclusive; [ ] = another dose, or the depositor's remark. % is set by controls: 0 for no effect and ±100 for the full control effect; potency is the fitted concentration of half-maximal effect. This is a subset, so the mix of outcomes need not match the whole.
SMILES,NPR1 antag
Cc1noc(C)c1CN1CCNc2cc(Nc3cccnc3)ncc2C1,-0.9%[70.6 µM]
O=C(Nc1cccc(-c2cscn2)c1)C1CCN(C(=O)C2CCCO2)CC1 (stereo unspecified),1.0%
COc1cc(SC)ccc1C(=O)N[C@@H]1C=C(C(=O)N[C@H](Cc2ccccc2)C(N)=O)C[C@@H](O)[C@@H]1O,-5.8%
CC1=NOC2(CCN(Cc3ccc(C(F)(F)F)cc3)C2)C1 (stereo unspecified),-1.3%[70.6 µM]
COCCN1C(=O)c2cccn2CC1CNC(=O)C1=C(C)C(=O)OC12CCCCC2 (stereo unspecified),-12.9%
CN(C)c1ccc(-c2nnnn2[C@H]2CO[C@H]3[C@@H]2OC[C@H]3OC(=O)Nc2ccc(Oc3ccccc3)cc2)cc1,0.5%
COCCOc1ncccc1-c1noc([C@@H]2CCCN2C2CCN(C)CC2)n1,0.7%[70.6 µM]
CNC(=O)[C@@H]1CN(C(=O)c2nn(C)c3ccccc23)C[C@H]1C1CCN(C)CC1,3.9%
O=C(CC1CCCCN(Cc2ccccc2)C1=O)Nc1ccc(F)cc1F (stereo unspecified),-0.4%
COCC1CN(C)CC12CCN(S(=O)(=O)c1cccs1)CC2 (stereo unspecified),-17.7%
CC1(CCCCc2ccccc2)COc2ccc(C(=O)NC3CCOCC3)cc2N1 (stereo unspecified),2.7%[70.6 µM]
COc1cccc(CNC(=O)C2CCN(c3cn[nH]c(=O)c3)C2)c1OC (stereo unspecified),1.2%

# Molecules listed so far that contain a halogen:
SMILES,NPR1 antag
CC1=NOC2(CCN(Cc3ccc(C(F)(F)F)cc3)C2)C1 (stereo unspecified),-1.3%[70.6 µM]
O=C(CC1CCCCN(Cc2ccccc2)C1=O)Nc1ccc(F)cc1F (stereo unspecified),-0.4%

# New compounds follow
SMILES,NPR1 antag
COc1ccc(CCCC(=O)N2CCC3(CCCNC3)C2)cc1 (stereo unspecified),-2.1%
COc1ccc(Cl)cc1C(=O)N(C)C1CCc2nnc(C)n2CC1 (stereo unspecified),1.4%
O=C(CC(c1cccc(F)c1)c1cn(Cc2ccccc2)c2ccc([N+](=O)[O-])cc12)N1CCCC1 (stereo unspecified),-24.4%
N#Cc1ccc(S(=O)(=O)N2CCCCCCNC(=O)CC2c2ccccc2)cc1 (stereo unspecified),-11.3%
COCc1noc([C@@H]2CC(F)(F)CN2C(=O)c2cccc(C#N)c2)n1,-9.1%
N#Cc1cccc(NC(=O)O[C@@H]2CO[C@H]3[C@@H]2OC[C@@H]3n2nnnc2-c2ccc(-c3ccccc3)cc2)c1,-13.7%
COCCOc1ccnc(-c2noc([C@@H]3CCCN3C3CCN(C(C)=O)CC3)n2)c1,4.3%[70.6 µM]
CC(C)CC(=O)N1CCC(N2CC3CC(C2)[C@H]2CCCC(=O)N2C3)CC1 (stereo partly specified),-1.9%
CCCn1c(C)c(CC(=O)N(C)Cc2cccnc2)c2c1CC(C)(C)CC2=O,3.7%
CCOc1ccccc1CNC(=O)c1c(C)noc1-c1ccc2c(c1)OCO2,-7.7%
CN1C[C@@H](NC(=O)Nc2ccccc2)C[C@H]1c1nc(-c2ccccc2)no1,-10.4%[70.6 µM]
COc1cccc(CN2Cc3c(CNc4cccc(C(F)(F)F)c4)nnn3CCC2=O)c1,-1.9%
COc1ccccc1C(=O)N1CCC(Oc2ccc(C(N)=O)cn2)CC1,-9.5%
O=C(COc1ccccc1)N1CCC(Oc2ncccc2C(=O)N2CCCCC2)C1 (stereo unspecified),4.6%
COc1ccc(-c2nc3c([nH]2)CC(C)(C)CNC3=O)cc1OC,-1.8%
O=C(CN1CCOCC1)N1CC(F)(F)C[C@H]1c1nc(C2CC2)no1,3.6%
C[S+](=O)([O-])N1C[C@H](C(=O)N2CCN(c3ccccn3)CC2)C[C@@H]1c1ccc(F)cc1,-1.6%[70.6 µM]
COCCOCc1nc(C2CCCCN2C(=O)NCc2ccc(F)cc2)no1 (stereo unspecified),4.1%
COc1cc(CNCc2cnn(C)c2C)ccc1OCC(O)CN1CCSCC1 (stereo unspecified),9.6%
COc1cccc(-c2cn3c(n2)N(C(=O)Cc2cccs2)CCC3)c1,-4.8%
CN1C[C@H](O)C[C@H]1c1nnc2n1CCN(C(=O)c1ccoc1)CC2,-0.9%
COc1cc(-c2onc(C)c2C(=O)NCCc2cccs2)cc(OC)c1OC,2.1%
Cc1ccc(CNC(=O)N2CCC(Cc3noc(C4CCOCC4)n3)C2)cc1 (stereo unspecified),2.1%
O[C@H]1CC[C@@H](Cc2cc(COc3ccccc3)on2)O[C@@H]1CNC1CCNCC1,4.1%
COc1ccc(C(=O)N(C)C2CCc3ccccc32)cc1 (stereo unspecified),0.0%[70.6 µM]
Cc1cc(=O)n(CC(=O)Nc2cccc(Cl)c2C)c(N2CCc3ccccc3C2)n1,2.4%
COCCOc1ccnc(-c2noc([C@@H]3CCCN3Cc3cn(C)c4ccccc34)n2)c1,6.6%[70.6 µM]
COc1cccc(NC(=O)N[C@H]2C[C@@H](C(=O)N[C@@H](CC(C)C)C(N)=O)N(C(=O)CC(C)(C)C)C2)c1,0.2%
Cc1nc(CC(=O)N2CCn3nc(CCC(=O)N4CCC(O)CC4)cc3C2)n[nH]1,0.6%
Cc1nn(-c2ccc(F)cc2)c(Oc2cccc(F)c2)c1CCC(=O)NCC1CC1,u
O=C(NCc1ccc(F)cc1)c1ccnc(-c2nnc3ccc(Nc4ccccc4)nn23)c1,-26.8%
CCCNC(=O)N(C1CCOCC1)C1CCN(C(=O)Cc2cccnc2)CC1,0.6%
CC1Oc2ccc(NS(=O)(=O)c3cccc(Cl)c3)cc2CN(Cc2ccccc2F)C1=O (stereo unspecified),u
COCCn1ncc(N2CCCC(CC(=O)Nc3ccc(C)c(F)c3)C2)cc1=O (stereo unspecified),-4.4%
Clc1ccc(-c2cnc([C@@H]3COCCN3Cc3cnc[nH]3)[nH]2)cc1,2.9%[70.6 µM]
CCN1C(=O)C2CC3(CCN(Cc4cn(C)c5ccc(OC)cc45)CC3)CN2C1=O (stereo unspecified),-3.9%

# Taken from above:
# `O=C(CC(c1cccc(F)c1)c1cn(Cc2ccccc2)c2ccc([N+](=O)[O-])cc12)N1CCCC1` (stereo unspecified) – NPR1 antag = -24.4%
# `O=C(COc1ccccc1)N1CCC(Oc2ncccc2C(=O)N2CCCCC2)C1` (stereo unspecified) – NPR1 antag = 4.6%

# (list continues)
SMILES,NPR1 antag
O=C1CC(c2noc(-c3cccc(OC(F)(F)F)c3)n2)CN1c1ccc(F)c(Cl)c1 (stereo unspecified),3.9%
O=C(NCCOc1ccccc1)C1CN(c2ccc(F)cc2)C(=O)N1 (stereo unspecified),-2.8%[70.6 µM]
OCC1CN(c2ccncn2)CC12CCN(Cc1cccc(F)c1F)CC2 (stereo unspecified),-7.1%
O=C(NC[C@H]1Cn2ccnc2CO1)NC1CCCCC1,1.2%[70.6 µM]
COC(=O)CCC(=O)N[C@H]1CO[C@H]2[C@@H]1OC[C@H]2OCc1ccccc1,6.2%[70.6 µM]
CCC1=C(C(=O)OC)C(c2ccccc2Cl)N2C(CC(=O)NCc3ccco3)=CSC2=N1 (stereo unspecified),u
Cc1ccc(-c2cc(C3CCN(C(=O)c4ccncc4)CC3)[nH]n2)cc1,-23.1%
O=C(c1ccc(F)cc1)N1CCCC(c2nn(-c3ccc(F)cc3)c(=O)[nH]2)C1 (stereo unspecified),20.3%
CCOc1ccc(CN(C)C2CCOc3ccccc32)cc1 (stereo unspecified),0.0%[70.6 µM]
CC(=O)N1CCC(N2CC3(C2)C(=O)N(Cc2ccccc2Cl)C(=O)[C@@H]2C[C@@H](O)CN23)CC1,7.8%
Cc1cc2nc3n(c(=O)c2n1CC(=O)Nc1ccc(F)c(F)c1)CCCCC3,-0.1%
COc1ccc(Cl)cc1-c1ccc2c(c1)C(=O)N1CCN(C(=O)c3ccco3)C[C@H]1C(=O)N2,-0.7%
O=C(c1ccc2c(c1)OCCO2)N1CCC(Cn2cc(CCO)nn2)CC1,-5.4%
CCNC(=O)NCCc1ncc(C)n1CC1CC1,1.4%
CCN(Cc1cccnc1)C(=O)c1cc(-c2cnn(CC)c2)nc2cc(C)ccc12,-3.6%
Cc1nc([C@@H]2CN(C(=O)C(C)(C)C)C[C@H]2C(N)=O)n[nH]1,0.2%
CCCN(CC1CCOC1)C(=O)NCCc1ccccc1 (stereo unspecified),-6.5%
O=C(c1ccc(F)c(F)c1)N1C[C@@H](CO)[C@H](c2ccncc2)C1,-0.5%
COCCn1c(=O)n([C@H]2CCCN(C(=O)c3cnccn3)C2)c2ncccc21,-0.8%
C#CCNC(=O)c1onc(-c2ccc(Cl)cc2)c1[C@H](C)O,-7.4%[70.6 µM]
Cc1noc(C)c1S(=O)(=O)N1CCC(c2noc(-c3ccncc3)n2)C1 (stereo unspecified),1.3%
CCOCCOC1CCN(C(=O)c2ccc3c(c2)c2ccccc2n3CC)CC1,0.0%
Cc1ccc([C@H]2C[C@@H](O)[C@@H](O)[C@@H]2NCC(C)(C)O)cc1,1.5%[70.6 µM]
CN(C)[C@@H]1C[C@@H](CO)N(C(=O)c2csc3nc(-c4ccccc4Cl)cn23)C1,2.2%
COc1ccc(C(=O)N[C@@H]2CN(Cc3cccnc3)C[C@H]2CN(C)C)cc1F,3.3%
CN(CC1(CO)CCC1)C(=O)c1cc(COc2ccccc2F)[nH]n1,-9.1%
O=C1OCC2(CCN(Cc3ccc4cn[nH]c4c3)C2)N1Cc1ccccn1 (stereo unspecified),-1.3%[70.6 µM]
CCC1Oc2ccc(NC(=O)Cc3ccc(OC)cc3)cc2CN(Cc2ccc3c(c2)OCO3)C1=O (stereo unspecified),-12.1%
NC(=O)[C@@H]1C[C@H](Oc2cccnc2)CN1S(=O)(=O)c1ccc2c(c1)OCCO2,-1.8%
OCCc1cc(CC2(NCc3ccc(C(F)(F)F)cc3)COC2)no1,4.8%[70.6 µM]
CCCNC(=O)CCC1CCN(S(=O)(=O)c2ccccc2)CC1,1.9%
O=C(Nc1ccc([C@@H](O)[C@H]2COCC(=O)N2CC2CC2)cc1)C1CCCC1,0.8%[70.6 µM]
COCC1(C(=O)N2CCN(c3cc(C4CC4)ncn3)CC(O)C2)CC1 (stereo unspecified),5.7%
CNc1nccc(N2CCC(CC(=O)O)CC2)n1,2.9%
COc1ccc(-c2cc(-c3cccc(CO)c3)cn3cncc23)cn1,-1.8%[70.6 µM]
Cc1ccc(CN2CCC(CNc3ccncn3)CC2)o1,3.1%
Cc1csc(NC(=O)c2nc3c(o2)CCN(CC2CCCC2)CC3)n1,-3.2%[70.6 µM]
COCC1(c2n[nH]c(C3CCOCC3)n2)CCC1,1.2%
Oc1ccccc1CN1C[C@H](O)C[C@H]1c1nc(-c2ccc(F)cc2)no1,0.7%[70.6 µM]
Cc1ccc(-c2[nH]ncc2CN2CCc3nc(N4CCN(C)CC4)[nH]c(=O)c3CC2)cc1,0.2%
C[C@H]1[C@@H]2[C@@H](O)C([C@H](C)C(=O)NC3CCCCC3)CC[C@@]2(C)CC[C@@H]1NC(=O)Cc1ccccc1 (stereo partly specified),-17.0%
CC(C)[C@H]1CN(C2CCOCC2)C[C@@H]1NC(=O)CCc1nncn1C,0.0%
CCCN(C)C(=O)c1onc(-c2ccc(OC)cc2)c1[C@H](C)O,-2.0%[70.6 µM]
O=C1c2cnc(-c3cncnc3)nc2OCCN1c1cccc(C(F)(F)F)c1,-0.5%[70.6 µM]
Cc1ccc(N2CCC(NC(=O)c3ccc(N(C)C)cc3)C2=O)cc1C (stereo unspecified),-12.7%
Cc1nccn1CCCN1CCC2(CC1)C(C(=O)O)CC(=O)N2C (stereo unspecified),6.8%
O=C(c1ccoc1)N1CC(F)(F)C[C@H]1c1nc(-c2ncccn2)no1,7.5%
O=C(Nc1cccc(C(F)(F)F)c1)N1C[C@@H](F)[C@@H](OCc2nc3ccccc3[nH]2)C1,-10.4%[70.6 µM]

# Looked up by compound from the list above:
SMILES,NPR1 antag
O=C(NCCOc1ccccc1)C1CN(c2ccc(F)cc2)C(=O)N1 (stereo unspecified),-2.8%[70.6 µM]
COc1ccc(-c2nc3c([nH]2)CC(C)(C)CNC3=O)cc1OC,-1.8%
CCN1C(=O)C2CC3(CCN(Cc4cn(C)c5ccc(OC)cc45)CC3)CN2C1=O (stereo unspecified),-3.9%
O=C(c1ccoc1)N1CC(F)(F)C[C@H]1c1nc(-c2ncccn2)no1,7.5%

# More records
SMILES,NPR1 antag
COc1ccc(Cl)cc1C(=O)N1C[C@@H](CN2CCCCCC2)[C@@H](CO)C1,1.1%
CN(C(=O)C(C)(C)C)C1CCCc2ccccc21 (stereo unspecified),12.2%[122 µM]
CCc1n[nH]c(CC2CCN(C(=O)C3CCC3)CC2)n1,5.1%
O=C1CCC(C(=O)N2CCc3c(n(CCOc4ccccc4)n(-c4ccccc4)c3=O)C2)N1 (stereo unspecified),1.8%
COc1ccc(Cn2ccn3nc4c(c3c2=O)CCCC4)cc1F,2.0%
Cc1ccccc1CNC(=O)C1c2ccccc2CC(=O)N1C(C)C (stereo unspecified),-23.0%
O=C(Cc1ccccc1)N1CCC(Cc2nc(-c3cccnc3)n[nH]2)C1 (stereo unspecified),-15.9%
CN(Cc1ccccc1)Cc1cc(C[C@@H]2CC[C@H](O)[C@@H](CN)O2)no1,-16.2%[70.6 µM]
COCCOC1CCOC2(CCN(C(=O)COc3ccc(F)cc3)CC2)C1 (stereo unspecified),1.7%
Cc1nc(C2(C)CCN(C(=O)c3ccc(Cc4c(C)noc4C)o3)CC2)no1,u
CCOC(=O)CCNC(=O)N1CCCN(S(C)(=O)=O)C(c2ccccc2)CC(=O)NCC1 (stereo unspecified),-1.8%
O=C(O)c1ccc(CN2CC[C@@H](c3ccc4c(c3)OCO4)[C@H](O)C2)cc1,6.5%
O=[S+]([O-])(Nc1cccnc1)c1ccc2c(c1)OCCN(Cc1ccncc1F)C2,0.5%[70.6 µM]

# Compound activity deposited in PubChem BioAssay by National Center for Advancing Translational Sciences (NCATS).
